Source: PubChem BioAssay
RanGTP-Impb inh: disruptors of Ran-importin-beta complex formation – biochemical, FRET, CFP-Ran, YFP-importin-beta, homogeneous, primary screen | cell-free CFP-Ran/YFP-importin-beta FRET ratio | inhibition, % (test concentration not listed) | actives 1.1% (n = 300,000) | AID 2216;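 active means most replicates above 15%; inconclusive means exactly half above 15%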;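 further: 0% = DMSO wells and 100% = Ran loaded with GDP instead of GTP; wells of about 40 µL received 100 nL stock; the first replicate is given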
rRNA inh HTS: selective bacterial rRNA inhibition in E. coli; E. coli WT GFP vs humanized-ribosome RFP mutants, fluorescence, 24 h; stronger effect = lower value; DMSO median 0, no signal -100; AID 720706; actives 1.6% (n = 350,000); GFP signal change (wild-type ribosome), % (concentration not given with the values);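 active means significant combined selectivity score with lowered wild-type GFP, culture density cut under 30%, mutant RFP and density less affected; inactive means any of these conditions unmet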; further: one replicate is shown; some compounds called inactive have numbers as strong as hits
Beta apoptosis: blocks beta cell apoptosis. INS-1E cytokine-induced death, ATP luminescence, 48 h; percent of positive-control rescue, neutral wells zero. protection from apoptosis, % (concentration not given with the values). actives 0.8% (n = 300,000). AID 435005;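 active means all replicates at 75% or more, or half of them and the mean; inconclusive means half reach 75% but not the mean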;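 further: 0% = cytokine-treated negative control wells and 100% = positive control rescue; higher means more ATP so stronger rescue from cytokine killing; wells of about 40 µL received 100 nL stock; the first replicate is given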
MLL AF4-AF9 inh: MLL-AF4/AF9 protein interaction inhibition; P42568; AlphaScreen, biotin-AF4 peptide binding to FLAG-AF9; inhibition, % at 10 µM; actives 0.47% (n = 350,000); AID 651704;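 active means every replicate reaching a set inhibition limit, whatever the replicate mean, cut at about 25% in these data; inconclusive means mean inhibition reaches that limit but some replicates miss it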;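 further: 0% = plate neutral control median and 100% = total signal loss; the record names both 10 and 1 µM as test concentration; the first replicate is given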
Target sequence (P42568 whole entry, looked up): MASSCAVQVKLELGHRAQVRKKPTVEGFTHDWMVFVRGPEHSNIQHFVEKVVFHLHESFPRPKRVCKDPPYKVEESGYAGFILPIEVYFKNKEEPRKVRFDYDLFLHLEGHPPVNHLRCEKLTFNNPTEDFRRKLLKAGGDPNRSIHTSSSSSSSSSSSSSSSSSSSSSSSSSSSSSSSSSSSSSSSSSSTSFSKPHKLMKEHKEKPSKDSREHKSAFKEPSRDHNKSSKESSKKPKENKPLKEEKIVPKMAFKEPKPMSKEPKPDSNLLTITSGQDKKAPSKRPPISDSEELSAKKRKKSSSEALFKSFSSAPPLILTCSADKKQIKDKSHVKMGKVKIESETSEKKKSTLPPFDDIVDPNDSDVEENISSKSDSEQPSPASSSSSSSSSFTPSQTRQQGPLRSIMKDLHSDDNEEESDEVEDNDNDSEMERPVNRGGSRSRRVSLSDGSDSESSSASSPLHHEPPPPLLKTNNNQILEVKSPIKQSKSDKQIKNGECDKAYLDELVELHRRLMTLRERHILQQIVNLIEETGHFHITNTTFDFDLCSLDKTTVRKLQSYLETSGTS
Calb FLC: C. albicans growth modulation with fluconazole | C. albicans CaCi-2 (fluconazole-resistant clinical isolate) + fluconazole, Alamar Blue growth, 48 h | actives 0.57% (n = 300,000) | AID 1979 | growth inhibition, % (no concentration beside the values);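 active means most replicates above 75%; inconclusive means exactly half above 75%; inactive means most below 75%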;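 further: all wells also contain fluconazole at 8 µg/ml as a sub-toxic cotreatment; 0% = median of DMSO wells and 100% = median of geldanamycin control wells; wells of about 8 µL received 7.5 nL stock; the first replicate is given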
FGF22 binding: shifts melting point of recombinant human FGF22 | Q9HCT0 | recombinant FGF22 thermal shift, SYPRO orange fluorescence; percent of sucrose octasulfate shift, DMSO zero | calls only at 9.99 µM | actives 1.5% (n = 340,000) | AID 651658;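 active means melting point raised past a set limit in the mean and every replicate; inconclusive means no clear call; three in four hits are not shown here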
Target sequence (Q9HCT0 whole entry, looked up): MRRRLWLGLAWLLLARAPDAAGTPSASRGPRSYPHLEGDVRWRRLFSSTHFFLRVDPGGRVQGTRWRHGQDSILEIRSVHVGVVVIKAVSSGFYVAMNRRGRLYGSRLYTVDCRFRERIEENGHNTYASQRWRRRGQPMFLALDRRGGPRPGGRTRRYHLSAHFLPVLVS
ALR H2O2 inh: human ALR oxidase inhibition via reduced H2O2 | actives 3.8% (n = 290,000) | purified ALR, DTT oxidation, H2O2 HRP-luminol luminescence | P55789 | inhibition, % (no concentration beside the values);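 active means mean and each replicate at 75% or more; inconclusive means only one of the two met; inactive means neither met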;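 further: stock transfer was 7.5 nL into about 7.5 µL; 0% = neutral wells and 100% = wells with inactivated enzyme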
Target sequence (P55789 whole entry, looked up): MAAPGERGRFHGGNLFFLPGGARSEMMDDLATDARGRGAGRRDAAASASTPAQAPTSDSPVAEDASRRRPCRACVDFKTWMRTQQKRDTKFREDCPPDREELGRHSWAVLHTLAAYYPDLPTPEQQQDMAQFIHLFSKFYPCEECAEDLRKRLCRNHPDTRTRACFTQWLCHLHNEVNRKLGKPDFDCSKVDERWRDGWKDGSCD
T cruzi repl: T. cruzi replication inhibition. actives 1.4% (n = 300,000). AID 1885. inhibition, % (no concentration beside the values). T. cruzi beta-gal in NIH3T3, luminescence, 90 h;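 active means mean inhibition across valid replicates above about 55%, limit read from the data; inconclusive means mean below that limit but half or more replicates reach it; inactive means mean below it, under half of replicates reach it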;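 further: signal also drops with host cell toxicity which is not excluded here; 0% = plate median of DMSO wells and 100% = zero luminescence signal; higher percent means less beta-gal luminescence so fewer parasites; stock transfer was 50 nL into about 50 µL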
rRNA inh HTS OD600: also measured in rRNA inh HTS; calls as there; OD600 change, %; measured here: OD600 growth;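 optical density of the mix in the first replicate; 0 = DMSO median and -100 = no signal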
rRNA inh HTS RFP: also measured in rRNA inh HTS; calls as there; RFP signal change, %; measured here: RFP humanized mutant strains;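 first replicate; 0 = DMSO median and -100 = no signal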
* hit, by the source's call; i = inactive; ? = inconclusive; · = no result given. The list is partial (hit frequency here may not be typical).

entry	smiles	RanGTP-Impb inh	rRNA inh HTS	rRNA inh HTS OD600	rRNA inh HTS RFP	Beta apoptosis
1	O=C(NC1CCCc2c1cnn2-c1ccccc1F)c1ccccc1N1CCOCC1 (centres undefined)	?	-19	-17	-5.0	0
2	Cc1ccc2c(c1)NCC(C(=O)NCc1ccccc1)O2 (centres undefined)	1.1	2	5	-0.7	-6
3	COc1cccc(Cl)c1NC(=O)N1CCc2c([nH]c3ccccc23)C1C(F)(F)F (centres undefined)	3.5	-15	-13	-4.0	-7
4	COc1ccc(C2=Nn3c(nnc3-c3ccc(OC)cc3)SC2)cc1	5.3	·	·	·	3
5	CC(=O)c1cccc(CN2CCC(C(=O)Nc3ccc(-c4cccc(C)c4)cc3)CC2)c1	5.4	-2	3	-1.1	·
6	Cc1nnn(-c2nonc2N)c1C(=O)N/N=C/c1cccc2ccccc12	9.7	·	·	·	3
7	C=CCn1c2ccccc2c2nnc(SC(CC)C(=O)Nc3sc4c(c3C#N)CCCC4)nc21 (centres undefined)	2.2	·	·	·	·
8	Cc1nc(-c2ccncc2)sc1C(=O)Nc1ccc(Br)cc1	-0.7	17	25	5.1	-1
9	COc1ccccc1-c1nc(-c2ccccn2)no1	2.8	-1	0	-0.9	·
10	Cc1ccc(C2(C)NC(=O)N(CC(=O)Nc3ccccc3N3CCCCC3)C2=O)cc1 (centres undefined)	-5.4	-23	-46	-1.1	3
11	CC1CN(c2nn3c(=O)c4ccccc4nc3c3ccccc23)CC(C)O1 (centres undefined)	?	·	·	·	9
12	CCc1c(C)nc2nc(SCc3ccccc3Cl)[nH]n2c1=O	7.4	-19	-17	-13	-2

entry	MLL AF4-AF9 inh	Calb FLC	FGF22 binding	ALR H2O2 inh	T cruzi repl
1	2.9	5	i	-23	21
2	1.6	1	i	-11	10
3	-1.4	6	i	-8	35
4	·	22	·	-1	-12
5	-0.4	-12	i	-4	8
6	·	-9	·	-10	18
7	·	-1	·	-7	3
8	-0.5	-2	i	6	15
9	-3.7	1	i	-8	-10
10	0.4	-11	i	4	11
11	·	0	·	-7	13
12	-2.0	38	i	1	-6

2 compounds picked at random from those above, as already listed:
entry	smiles	RanGTP-Impb inh	rRNA inh HTS	rRNA inh HTS OD600	rRNA inh HTS RFP	Beta apoptosis
7	C=CCn1c2ccccc2c2nnc(SC(CC)C(=O)Nc3sc4c(c3C#N)CCCC4)nc21 (centres undefined)	2.2	·	·	·	·
12	CCc1c(C)nc2nc(SCc3ccccc3Cl)[nH]n2c1=O	7.4	-19	-17	-13	-2

entry	MLL AF4-AF9 inh	Calb FLC	FGF22 binding	ALR H2O2 inh	T cruzi repl
7	·	-1	·	-7	3
12	-2.0	38	i	1	-6

Later entries
entry	smiles	RanGTP-Impb inh	rRNA inh HTS	rRNA inh HTS OD600	rRNA inh HTS RFP	Beta apoptosis
13	N#Cc1c2n(cnc1=O)CCCCC2	-0.9	·	·	·	-6
14	O=C1CCN(Cc2ccccc2)C(=O)N1c1ccccc1	0.7	·	·	·	-1
15	CCOC(=O)/C(C#N)=N\Nc1ccc(S(=O)(=O)Nc2nc(C)cc(C)n2)cc1	4.0	·	·	·	·
16	O=S(=O)(/C=C/c1ccccc1)Nc1ccc(N2CCOCC2)cc1	-5.0	·	·	·	0
17	CN(C(=O)CSc1ncnc2sc3c(c12)CCC3)C1CCS(=O)(=O)C1 (centres undefined)	·	12	12	1.0	-6
18	Cc1nnc(SCCC(=O)Nc2ccc(F)cc2)s1	2.3	·	·	·	-11
19	CC(=O)NC1=NN(C(C)=O)C(C)(c2ccc(Cl)s2)S1 (centres undefined)	-1.8	·	·	·	28
20	COc1cc(OC)cc(C(=O)NN2CCCCC2)c1	2.2	·	·	·	-7
21	COc1ccc(Cn2ccc(=O)c(Cc3c(Cl)cccc3Cl)c2C)cc1	8.9	·	·	·	-5
22	O=C(Cn1nnc(-c2ccccc2)n1)NNC(=O)c1ccc(Br)cc1	0.9	5	19	1.6	3
23	COc1ccc(N(CC(=O)Nc2cc(C)ccc2C)S(=O)(=O)c2c(C)nn(C)c2C)cc1	-1.0	-2	12	-5.0	0
24	O=C(c1ccc(F)cc1)N1CCOCC1	3.2	21	2	-0.3	-2

entry	MLL AF4-AF9 inh	Calb FLC	FGF22 binding	ALR H2O2 inh	T cruzi repl
13	·	-7	·	-6	-13
14	-1.4	-2	i	-2	-12
15	·	4	·	29	-6
16	·	9	·	95*	7
17	-1.0	·	i	0	·
18	·	6	·	-3	4
19	·	-7	·	-15	1
20	·	-18	·	22	-6
21	·	3	·	-2	14
22	-11	-4	i	0	-13
23	-7.8	-9	i	-1	-3
24	-0.9	1	i	5	-16

Structures listed above marked active in ALR H2O2 inh.
item	Compound	RanGTP-Impb inh	rRNA inh HTS	rRNA inh HTS OD600	rRNA inh HTS RFP	MLL AF4-AF9 inh	FGF22 binding	ALR H2O2 inh
16	O=S(=O)(/C=C/c1ccccc1)Nc1ccc(N2CCOCC2)cc1	-5.0	·	·	·	·	·	95*

Remaining list, next part.
entry	smiles	RanGTP-Impb inh	rRNA inh HTS	rRNA inh HTS OD600	rRNA inh HTS RFP	Beta apoptosis
25	O=C(CCC(=O)c1ccc(Oc2ccccc2)cc1)Nc1cccc(Cl)c1	5.7	13	9	-5.4	-3
26	Cc1cc(C)cc(NC(=O)C2CCCN2S(=O)(=O)c2ccc3c(c2)C(C)(C)C(=O)N3C)c1 (centres undefined)	-1.4	-3	-2	-0.7	-12
27	Cc1ccc(OCCC(=O)O)cc1	-1.2	8	9	-3.2	1
28	CC(=O)N1c2ccccc2NC2=C(C(=O)CCC2)C1c1ccc(F)cc1 (centres undefined)	-2.4	·	·	·	-7
29	CN(c1ccccc1)S(=O)(=O)c1cccc(NC(=O)CSc2ncc(C(F)(F)F)cc2Cl)c1	-6.2	-12	-27	-12	2
30	COc1ccc(/C=C/C(O)=C(\C#N)c2nnc(N3CCOCC3)n2-c2ccccc2)cc1OC	2.3	-15	-20	4.0	-1
31	CC1=C(C(=O)Nc2ccccc2)C(c2cccnc2)n2nc(-c3cccnc3)nc2N1 (centres undefined)	-2.2	·	·	·	-5
32	COC(=O)Oc1cncc(C(=O)O)c1	10	·	·	·	-3
33	O=C1CCc2cc(S(=O)(=O)NC3CCCCC3)cc3c2N1CC3	8.9	6	9	-3.8	·
34	Cc1ccc(S(=O)(=O)N2CCN(C(=O)Cc3ccsc3)CC2)c(C)c1	-0.2	-2	-7	-2.2	-4
35	CC(NC(=O)C(=S)N1CCN(C)CC1)c1ccccc1 (centres undefined)	6.6	-2	10	-0.4	0
36	COc1ccccc1N1CC(C)(C)C(=O)N(C(=O)c2c(F)cccc2Cl)C1=S	-1.0	·	·	·	7

entry	MLL AF4-AF9 inh	Calb FLC	FGF22 binding	ALR H2O2 inh	T cruzi repl
25	5.1	6	i	-3	-14
26	-1.5	-1	i	-4	-2
27	-1.0	6	i	-4	-6
28	·	-7	·	-2	-1
29	2.2	5	i	-24	3
30	3.2	0	i	-23	-8
31	·	7	·	7	-3
32	·	0	·	19	-4
33	0.9	-8	i	1	-3
34	-0.3	3	i	-2	-1
35	-2.7	-14	i	1	-9
36	7.5	1	i	-5	-8

Next compounds:
entry	smiles	RanGTP-Impb inh	rRNA inh HTS	rRNA inh HTS OD600	rRNA inh HTS RFP	Beta apoptosis
37	CNC(=O)c1ccsc1NC(=O)CS(=O)(=O)c1ccccc1	1.5	-3	2	-3.8	-1
38	O=C(N/N=C1/CCSC1)c1cccc([N+](=O)[O-])c1	3.8	·	·	·	5
39	CCN(C(=O)Cn1cnc2c1c(=O)n(C)c(=O)n2C)C1CCS(=O)(=O)C1 (centres undefined)	·	5	13	-3.4	-2
40	Cc1ccc(C(=O)Nc2cc(C(C)C)c(O)c(C(C)C)c2)cc1	0.2	·	·	·	-6
41	CC(=O)Nc1ccccc1C(=O)C(=O)Nc1cccc(C(=O)N2CC(C)CC(C)C2)c1 (centres undefined)	-0.8	-8	5	1.1	-4
42	Cc1ccc(OC(=O)CCC(=O)N2CCc3ccccc32)cc1	7.6	·	·	·	-7
43	COc1cc(SC)ccc1C(=O)NCc1ccc(C)cc1	-3.7	·	·	·	-7
44	CC(=O)C1=C(O)C(=O)N(c2ccc(C)cc2)C1c1ccc([N+](=O)[O-])cc1 (centres undefined)	?	9	5	3.9	1
45	O=C1CNC(=O)/C1=C/c1ccc(O)cc1	-9.1	·	·	·	-5
46	CC1CCCCC1NC(=O)Cn1nnc2ccccc2c1=O (centres undefined)	-0.6	17	10	1.9	-5
47	Cc1ccc(/C=N/Nc2ccc(Cl)c(C(=O)O)c2)s1	-2.2	·	·	·	-1
48	CNc1nc(Oc2ccc(=O)n(C)n2)nc(N2CCOCC2)n1	2.3	·	·	·	-6
49	Cc1cc(=O)n2c3ccccc3n(CC(O)CN3CCCC3)c2c1C#N (centres undefined)	1.6	3	0	-3.0	-1
50	CC(=O)Nc1ccc(NC(=O)N(c2ccccc2)c2ccccc2)cc1	?	3	-9	-1.1	10

entry	MLL AF4-AF9 inh	Calb FLC	FGF22 binding	ALR H2O2 inh	T cruzi repl
37	-0.7	2	i	55	0
38	·	-5	·	0	-8
39	-7.4	·	i	-2	·
40	·	-4	·	-2	-5
41	2.7	-3	i	-4	-1
42	·	18	·	-2	-12
43	·	-8	·	47	-2
44	-5.5	-12	i	29	-24
45	·	4	·	31	-11
46	6.4	1	i	·	-10
47	·	-5	·	74	-4
48	·	-25	·	2	-15
49	5.8	-12	i	-8	37
50	-0.2	-5	i	-8	4

Some of the entries so far, with bars between the fields:
entry | Structure | RanGTP-Impb inh | rRNA inh HTS | rRNA inh HTS OD600 | rRNA inh HTS RFP | Beta apoptosis | MLL AF4-AF9 inh | Calb FLC | FGF22 binding | ALR H2O2 inh | T cruzi repl
40 | Cc1ccc(C(=O)Nc2cc(C(C)C)c(O)c(C(C)C)c2)cc1 | 0.2 | · | · | · | -6 | · | -4 | · | -2 | -5
41 | CC(=O)Nc1ccccc1C(=O)C(=O)Nc1cccc(C(=O)N2CC(C)CC(C)C2)c1 (centres undefined) | -0.8 | -8 | 5 | 1.1 | -4 | 2.7 | -3 | i | -4 | -1
42 | Cc1ccc(OC(=O)CCC(=O)N2CCc3ccccc32)cc1 | 7.6 | · | · | · | -7 | · | 18 | · | -2 | -12
43 | COc1cc(SC)ccc1C(=O)NCc1ccc(C)cc1 | -3.7 | · | · | · | -7 | · | -8 | · | 47 | -2
44 | CC(=O)C1=C(O)C(=O)N(c2ccc(C)cc2)C1c1ccc([N+](=O)[O-])cc1 (centres undefined) | ? | 9 | 5 | 3.9 | 1 | -5.5 | -12 | i | 29 | -24
45 | O=C1CNC(=O)/C1=C/c1ccc(O)cc1 | -9.1 | · | · | · | -5 | · | 4 | · | 31 | -11
